Screening results as filed in PubChem BioAssay.
AmpC nodet inh = AmpC beta-lactamase inhibition, detergent-free assay; P00811; AmpC nitrocefin hydrolysis, absorbance 480 nm, no detergent; potencies from a single point are estimates; Potency, µM (doses to about 28.7 µM), inactives show top-dose activity change, negative = inhibition; 71,000 tested, 1.8% active; active = falling curve, for most hits resting on a single point; inconclusive = weak or doubtful change; inactive = flat or rising curve; further: % of control where 0% means no effect; a quarter of the inactives give rising signals
Target sequence (P00811 whole entry, looked up): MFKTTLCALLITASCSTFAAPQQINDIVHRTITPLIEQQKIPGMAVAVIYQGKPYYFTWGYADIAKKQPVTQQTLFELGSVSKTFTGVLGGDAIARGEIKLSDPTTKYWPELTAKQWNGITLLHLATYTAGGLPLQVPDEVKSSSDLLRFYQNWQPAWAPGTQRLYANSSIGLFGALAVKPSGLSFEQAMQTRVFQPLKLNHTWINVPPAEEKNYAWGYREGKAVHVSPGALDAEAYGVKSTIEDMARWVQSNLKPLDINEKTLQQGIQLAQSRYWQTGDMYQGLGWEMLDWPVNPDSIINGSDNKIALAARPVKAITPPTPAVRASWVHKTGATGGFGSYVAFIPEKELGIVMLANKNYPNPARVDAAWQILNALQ
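Enzyme, pH 7.0 phosphate. Compound titrations were pre-incubated with AmpC for 15 min at room temperature before nitrocefin (stock 800 uM) addition; product formation was recorded at 480 nm every 20 s for 4 min.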
* = called active by the depositor; ? = inconclusive; [ ] = dose if it differs, or a comment. Potency means the concentration at half of the fitted maximal effect.

item	Molecule	AmpC nodet inh
1	CCC(C)(C)n1nnnc1C(c1ccc(OC)c(OC)c1)N1CCN(c2ccc(OC)cc2)CC1 (centres undefined)	125%
2	CC(C)OC(=O)CC12CN3CC(CC(=O)OC(C)C)(CN(C1)C(=O)c1ccccc1C3=O)C2=O	106%
3	CCOC(=O)CSc1nnc(CCc2nc3ccccc3[nH]2)n1C	-3%
4	CN(C)c1ccc(C(=O)N2CC(=O)N(CCc3ccccc3)C(=O)C2)cc1	24%
5	CCC(c1nnnn1Cc1ccco1)N(Cc1ccccc1OC)Cc1cc2cc(C)ccc2[nH]c1=O (centres undefined)	28%
6	CCOC(=O)c1c(NC(=O)Cc2cccs2)sc(C(=O)N2CCCCC2)c1C	77%
7	O=C(c1cccc(F)c1)N1CCC2(CC1)CN(Cc1ccccc1)C2	-12%
8	COc1ccc(CCNc2nc(=O)[nH]nc2C)cc1OC	-3%
9	COCC(=O)N1CCC[C@@]2(CCN(c3ccncc3)C2)C1	-3%
10	FC(F)(F)C(Cl)Br (centres undefined)	2%
11	CC(C)n1c(Sc2nccn2C)nc2c1c(=O)n(C)c(=O)n2C	5%
12	Cc1cc(N2CCCC2)ccc1/C=N/n1cnnc1	55%
13	CCc1[nH]nc2c1C1(CCOC1C)C(C#N)=C(N)O2 (centres undefined)	-8%
14	C/C(=C1\SC(N2CCOCC2)=NC1=O)c1ccc(C)cc1	41%
15	Nc1ccn([C@H]2CC[C@@H](CO)O2)c(=O)n1	-4%
16	COCC(=O)Nc1c(I)c(C(=O)NC[C@@H](O)CO)c(I)c(C(=O)N(C)C[C@@H](O)CO)c1I	-3%[12.8 µM]
17	COc1ccc(C(=O)O)cc1S(=O)(=O)Nc1cccc(C(F)(F)F)c1	-2%
18	Cc1cc(-c2ccco2)c(C#N)c2nc3ccccc3n12	24%
19	O=C(O)c1cc(CN2CCOCC2)oc1-c1ccccc1	-4%
20	CC(Cl)CCl (centres undefined)	2%
21	COP(=S)(OC)SCn1nnc2ccccc2c1=O	-9%
22	O=C(CSc1nnc(-c2cccnc2)o1)OC1CCCCC1	37%
23	COC(=O)c1ccc(COc2nc(C)cc(C)c2C#N)o1	-6%
24	O=C(NCc1ccco1)c1scc2c1OCCO2	-7%
25	N#Cc1nc(COc2ccccc2)oc1N1CCN(c2cccc(Cl)c2)CC1	-5%
26	O=c1[nH]c(-c2ccccc2)c(-c2ccccc2)[nH]1	-4%
27	O=C(Nc1scc(-c2ccccc2)c1C(=O)O)c1ccco1	-11%
28	O=C(NCCNC(=O)C(F)(F)F)c1ccncc1	4%
29	CCC(C)(C(=O)Nc1ccc2c(c1)OCCO2)N(C(C)=O)c1ccc(C(N)=O)cc1 (centres undefined)	-4%
30	COC(=O)c1sc(NC(=O)C2CCCO2)c(C(=O)OC)c1C (centres undefined)	107%
31	COc1cc(CC(=O)Oc2ccc3c(c2)OCO3)cc(OC)c1OC	17%
32	CCn1cc(Cl)c(C(=O)Nc2nc3ccccc3n2CCN2CCCCC2)n1	19%
33	C=C(C)[C@H]1[C@H]2OC(=O)[C@@H]1[C@]1(O)C[C@H]3O[C@]34C(=O)O[C@H]2[C@]14C	-5%
34	CC1(C)CC(N2CN(C3CCCCC3)CC2=O)CC(C)(C)N1	-3%
35	Cc1ccc(CCNC(=O)c2nnn(-c3cccc(C)c3)c2N)cc1	14%
36	COc1ccc(-n2c(=O)c(C)nc3cnc(N(C)C)nc32)cc1	20%
37	O=C1CC(c2ccco2)CC(O)=C1C=NCCN1CCNCC1 (centres undefined)	3%
38	COc1ccc(Cl)cc1N1C(=O)C2CCCN2C1c1ccc(F)cc1 (centres undefined)	49%
39	CCCC(c1nnnn1Cc1cccs1)N1CCN(C2CCCC2)CC1 (centres undefined)	-11%
40	O=C1C(Cl)=C(Nc2ccccc2O)C(=O)N1c1ccccc1	?
41	O=C(CCN1C(=O)C2C3C=CC(C3)C2C1=O)N1CCN(c2ccccc2Cl)CC1 (centres undefined)	104%
42	CC1=C(C(N)=O)C(c2cccc(OCc3ccccc3)c2)n2nnnc2N1 (centres undefined)	2%
43	CCOc1ccc(CCNC(=O)CCc2nc(-c3ccc(OC)cc3)no2)cc1OCC	63%
44	Cc1cccc(-n2ncc3c(N)ncnc32)c1	-1%
45	c1ccc(Cn2nnnc2CN2CCN(Cc3ccc4c(c3)OCO4)CC2)cc1	88%
46	c1ccc(SCc2nc(-c3cccnc3)no2)cc1	-4%
47	COc1ccc(Nc2cc(C)nc3nc(C)nn23)cc1Cl	21%
48	O=C(CCCC(=O)OCC1CCCO1)OCC1CCCO1 (centres undefined)	9%
49	O=C(C1CCC1)N1CCc2cc(S(=O)(=O)Nc3ccc4c(c3)OCO4)ccc21	?
50	Cc1ccnc2nc(C(=O)N3CCN(S(=O)(=O)c4ccccc4)CC3)nn12	7%
51	CC(C)C(c1nnnn1Cc1ccccc1)N1CCc2ccccc2C1 (centres undefined)	34%
52	CC(=O)Nc1cc(-c2nn(CC(=O)N3CCCCC3)c(=O)c3ccccc23)ccc1N1CCOCC1	79%
53	O=C(CCNC(=O)Cn1ccc2ccccc2c1=O)NCCCN1CCN(c2ccccc2F)CC1	53%
54	Cc1cc(C)c2c(c1)-c1c(ssc1=S)C(C)(C)N2C(=O)CSc1nncn1C	151%
55	COC(=O)Cc1c(C)c2ccc(OCC(=O)N3CCOCC3)cc2oc1=O	3%
56	O=C(NCCN1CCN(c2ccccc2F)CC1)c1cccn2c(=O)c3ccccc3nc12	115%

(listing goes on)
item	Molecule	AmpC nodet inh
57	CC(C)c1ccccc1N1CC(C(=O)O)CC1=O (centres undefined)	-5%
58	ClC1=C(Cl)C2(Cl)C3C(Cl)C(Cl)CC3C1(Cl)C2(Cl)Cl (centres undefined)	-18%
59	COc1ccc(CNC(=O)c2cc(-c3ccco3)on2)cc1	-2%
60	O=C(CN1CCOCC1)Nc1ncc(Br)cc1Br	-2%
61	COc1ccc(C(=O)n2nc(-c3ccc(C)cc3)nc2N)cc1OC	-6%
62	C=COCCNC(=O)C1CC(=O)N(c2ccc(C)cc2)C1 (centres undefined)	20%
63	O=C(CSc1nnnn1Cc1ccccc1)NCC(=O)c1ccccc1	4%
64	c1ccc(Cn2ccnc2SCc2nnc(-c3ccccc3)o2)cc1	21%
65	CCOC(=O)c1c(NC(=O)c2cccs2)sc(C(=O)N2CCOCC2)c1C	115%
66	O=C(CSc1nc2ccccc2c2nc3ccccc3n12)NCc1ccco1	-3%
67	COc1ccc(N=c2oc3cc(O)ccc3cc2C(=O)NCC2CCCO2)cc1 (centres undefined)	-17%
68	CCCCOCCCNC1=NCCCCC1	5%
69	O=C(NCCC1=CCCCC1)C1CCCN(S(=O)(=O)c2cccc3cccnc23)C1 (centres undefined)	63%
70	CCOC(=O)C(Cc1ccccc1)NC(=O)Cn1nnc(-c2ccccc2)n1 (centres undefined)	13%
71	CCCCn1nnc(NC(=O)c2sc3cc(Cl)ccc3c2Cl)n1	-4%
72	CCN(CCO)C[C@H]1CCC[C@H]2CCCC[C@@H]21	-3%[5.75 µM]

An excerpt from above in order of formula weight, high to low.
item	Molecule	AmpC nodet inh
69	O=C(NCCC1=CCCCC1)C1CCCN(S(=O)(=O)c2cccc3cccnc23)C1 (centres undefined)	63%
67	COc1ccc(N=c2oc3cc(O)ccc3cc2C(=O)NCC2CCCO2)cc1 (centres undefined)	-17%
66	O=C(CSc1nc2ccccc2c2nc3ccccc3n12)NCc1ccco1	-3%
70	CCOC(=O)C(Cc1ccccc1)NC(=O)Cn1nnc(-c2ccccc2)n1 (centres undefined)	13%

More entries follow:
item	Molecule	AmpC nodet inh
73	CCn1ncc(Cl)c1C(=O)Nc1cc(Cl)ccc1Cl	5%
74	Cn1c(N2CCC(C(N)=O)CC2)nc2c1c(=O)n(Cc1cccc(Br)c1)c(=O)n2C	102%
75	COc1cccc(Nc2ncc3nc(CCc4ccccc4)c(=O)n(C)c3n2)c1	11%
76	COc1ccc(OC)c(S(=O)(=O)N(C)CC(=O)Nc2cc(Cl)ccc2OC)c1	16%
77	CCOC(=O)c1ccc(NC(=O)NCc2ccncc2)cc1	-4%
78	O=C(c1ccccc1-c1ccccc1)N1CCCC1	9%
79	O=C(Cn1nc(Cc2cccnc2)c2ccccc2c1=O)N1CCN(C(=O)c2ccco2)CC1	3%
80	Cc1ccccc1-n1c(SCC(=O)N2CCN(c3ccccc3)CC2)nnc1-c1ccncc1	106%
81	CCc1nc2ccccc2n(CCOCCn2c(=O)c(CC)nc3ccccc32)c1=O	24%
82	CSc1ccc(-c2nnn(Cc3ccccn3)n2)cc1	17%
83	Nn1c(COc2ccccc2)nnc1SCC(=O)O	-14%
84	CCCCn1c(=O)c(C(=O)Nc2ccccc2S(N)(=O)=O)c(O)c2ccccc21	-19%
85	COC(=O)C1=C(C)NC(C)=C(C(=O)OC)C1c1cc2cc(C)ccc2[nH]c1=O	53%
86	Cc1nc2cc(-n3ccc(=O)cc3)ccc2n1-c1ccccc1	0%
87	COc1ccccc1-c1cc(C(=O)Nc2cc(C)on2)no1	-17%
88	CCc1ccc(N2CCCn3c2nc2c3c(=O)n(CCN3CCOCC3)c(=O)n2C)cc1	85%
89	CCn1c2ccccc2c2nc3cc(OC)c(OC)cc3nc21	134%
90	COc1ccc(C(C#N)C2(C)OCCO2)cc1OC (centres undefined)	10%
91	COc1cccc(N(CC(=O)NCc2cccnc2)S(C)(=O)=O)c1	2%
92	COc1ccc(-c2nc(CS(=O)CC(=O)N3CCC4(CC3)OCCO4)c(C)o2)cc1 (centres undefined)	42%
93	CC(C)(C)c1nnc(NC(=O)CN2C(=O)C3C4C=CC(C4)C3C2=O)s1 (centres undefined)	19%
94	CCN(c1cccc(C(F)(F)F)c1)S(=O)(=O)c1ccc2c(c1)CCN2C(=O)C1CC1	57%
95	CCC(=O)Nc1nnc(CSCc2ccccc2)s1	7%
96	COc1ccc(S(=O)(=O)NCCCCCC(=O)NCCCN2CCOCC2)cc1	10%

Some of the entries so far, with each value named:
94	CCN(c1cccc(C(F)(F)F)c1)S(=O)(=O)c1ccc2c(c1)CCN2C(=O)C1CC1
  AmpC nodet inh: 57%
95	CCC(=O)Nc1nnc(CSCc2ccccc2)s1
  AmpC nodet inh: 7%

(cont.)
item	Molecule	AmpC nodet inh
97	COc1cccc(NC(=O)/C=C\c2ccc(Cl)cc2)c1	-13%
98	COC(=O)c1ccc2c(=O)n(CCO)c(=S)[nH]c2c1	0%
99	Cc1cc(-n2nc(C)cc2C)nc(NS(=O)(=O)c2ccccc2)n1	-8%
100	COC(=O)c1ccccc1NC(=O)C1CCCN(S(C)(=O)=O)C1 (centres undefined)	4%
101	O=C(Oc1ccc(-n2cnnn2)cc1)c1ccco1	2%
102	NC(=O)CS(=O)(=O)c1nc2ccccc2n1CC(=O)N1CCCCC1	-7%
103	c1nc(NC2CC2)c2cc(-c3ccoc3)ccc2n1	64%
104	CCC(=O)N1CCc2cc(S(=O)(=O)CCC(=O)NCc3ccc4c(c3)OCO4)ccc21	14%

A few values from the list:
entry 102 in AmpC nodet inh → -7%
entry 97 in AmpC nodet inh → -13%
entry 98 in AmpC nodet inh → 0%
entry 99 in AmpC nodet inh → -8%
entry 101 in AmpC nodet inh → 2%
entry 100 in AmpC nodet inh → 4%

Other entries.
item	Molecule	AmpC nodet inh
105	Cc1cc(C)c(NC(=O)CN2CCN3CCCC3C2)c(C)c1 (centres undefined)	-8%
106	Cc1ccc(Cl)cc1N(CC(=O)NC1CCCCC1)S(C)(=O)=O	25%
107	Cc1c(C(=O)NCc2cccnc2)oc2c1C(=O)CC(C)(C)C2	-10%
108	O=C(Nc1ccccc1)N1CCN(c2nc3ccccc3s2)CC1	-10%
109	COc1ccc(Oc2ncc3nc(-c4ccc(F)cc4)c(=O)n(CCC#N)c3n2)cc1	14%
110	C=CCn1c(N)c(-c2nc3ccccc3n2C)sc1=S	-5%
111	C[C@H](NCCc1ccc(O)cc1)[C@@H](O)c1ccc(O)cc1	-5%[12.8 µM]
112	Cc1cc(OCC(=O)NCCCN(C)C)cc(C)c1Br	27%
113	Cc1ccc(OCC(=O)Nc2cccc(C)n2)c(C)c1	12%
114	c1ccc(C2(c3ccccc3)OCC(Cn3cncn3)O2)cc1 (centres undefined)	42%
115	O=C(c1cnn2c(C(F)F)cc(C3CC3)nc12)N1CCc2ccccc2C1	45%
116	O=C(COc1ccc(Cl)cc1Cl)NCc1ccco1	19%
117	CC(=O)c1cccc(NC(=O)c2cc(C)no2)c1	-8%
118	CN(CC(=O)Nc1ccccc1Cl)C(=O)COC(=O)CNC(=O)c1ccc(Br)o1	5%
119	Cc1ccc(S(=O)(=O)/N=C/c2ccco2)cc1	6%
120	Nc1c(N2CCN(c3ccccc3)CC2)c2ccccc2oc1=O	4%
121	CCC1CCc2c(sc(NC(=O)c3ccoc3C)c2C(N)=O)C1 (centres undefined)	-8%
122	COc1ccc(NC(=O)CSc2nc(NS(=O)(=O)c3ccccc3)cc(=O)[nH]2)cc1	-9%
123	Cc1cc(C)n(-c2nc(NCc3cccnc3)c3c4c(sc3n2)COC(C)(C)C4)n1	129%
124	C[C@H](CC(=O)O)C(C(=O)O)C(=O)O	-2%[5.75 µM]
125	CCC(C)(C)NC(=O)C(c1ccccc1F)N(Cc1ccco1)C(=O)Cn1nnc2ccccc21 (centres undefined)	33%
126	Nc1ccc(S(=O)(=O)Nc2cnc3ccccc3n2)cc1	3%[5.75 µM]
127	COc1ccccc1-n1c2c(cc(C(=O)N3CCC(C)CC3)c1=O)C(=O)CC(C)(C)C2	24%
128	CCOc1ccc(-c2nnc(-c3ccco3)o2)cc1OCC	50%
129	CC(C)N(CCNC(=O)c1cn(C)c2ccc(S(=O)(=O)N(C)C)cc2c1=O)Cc1ccccc1	99%
130	CCN1C(=O)C2C(c3ccc(O)c(OC)c3)NC(C)(C(=O)OC)C2C1=O (centres undefined)	-3%

This is a subset; the hit share may differ from the screen's.
